PGK inhibitor – T. brucei PGK inhibition; AID 602233; Potency, µM (top dose mostly 57.5 µM), inactives show top-dose activity change, negative = inhibition, actives largely listed as inhibitors; P07378; 380,000 compounds, 0.043% hits; PGK/GAPDH coupled, Kinase-Glo luminescence, 60 min; note: % is set by controls: 0 for no effect and ±100 for the full control effect; nearly all actives have a fitted effect of over 60% in size
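Recombinant glycosomal PGK reaction used 1,3-bisphosphoglycerate generated in-well by GAPDH (100nM final) in 100mM TEA pH 7.6, 5mM MgCl2, 0.01% Tween-20. After 60 minutes at room temperature, ATP was read by Kinase-Glo Plus luminescence end-point.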
12-LOX inh – inhibitors of human 12S-lipoxygenase ALOX12; AID 1671190; purified 12hLO, xylenol orange hydroperoxide absorbance; 580,000 compounds, 1.1% hits; Potency, µM (top dose mostly 108 µM), for the others: at the top dose activity change, negative = inhibition, actives largely listed as inhibitors; P18054; note: % is set by controls: 0 for no effect and ±100 for the full control effect
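Purified human 12hLO (150 nM final) in 25 mM Hepes, 0.01% Triton X-100, pH 7.0 was preincubated 15 min at room temperature with compound. Then 40 uM arachidonic acid was added, 30 min. Hydroperoxide was read by Fe-XO absorbance ratio 573/405 nm.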
RGS4 inhibitor – blocks human RGS4-accelerated GTP hydrolysis. P49798. Potency, µM (titrated, usually from 114 µM), for inactives: top-dose activity change, negative = inhibition, most hits filed as inhibitors. Transcreener GDP fluorescence polarization, RGS4-accelerated GTP hydrolysis. 390,000 compounds, 0.039% hits; note: % is set by controls: 0 for no effect and ±100 for the full control effect; nearly all actives have a fitted effect of over 75% in size; some results filed as inactive show a strong effect at the top dose
Target sequence (P49798 whole entry, looked up): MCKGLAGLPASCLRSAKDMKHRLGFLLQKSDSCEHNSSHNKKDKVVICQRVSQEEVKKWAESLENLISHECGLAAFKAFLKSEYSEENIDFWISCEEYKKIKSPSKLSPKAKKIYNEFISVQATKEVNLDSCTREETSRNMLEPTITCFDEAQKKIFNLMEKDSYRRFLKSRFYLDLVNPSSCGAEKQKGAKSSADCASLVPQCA
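MLSMR compounds (23 nl, pin-transferred) preincubated 10 min at room temperature with a 500nM (2x) first reagent, then RGS4 at 900nM (2x) plus Transcreener GDP mix added; fluorescence polarization (620/688 nm) read before and after 90 min at 30 °C.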
GLS inh – blocks human kidney-isoform glutaminase activity; 410,000 compounds, 0.21% hits; Potency, µM (titrated, usually from 45.5 µM), for inactives: at the highest dose activity change, negative = inhibition, usual class: inhibitors; O94925; GLS enzymatic activity, qHTS titration; note: % is set by controls: 0 for no effect and ±100 for the full control effect
Target sequence (O94925 whole entry, looked up, canonical isoform): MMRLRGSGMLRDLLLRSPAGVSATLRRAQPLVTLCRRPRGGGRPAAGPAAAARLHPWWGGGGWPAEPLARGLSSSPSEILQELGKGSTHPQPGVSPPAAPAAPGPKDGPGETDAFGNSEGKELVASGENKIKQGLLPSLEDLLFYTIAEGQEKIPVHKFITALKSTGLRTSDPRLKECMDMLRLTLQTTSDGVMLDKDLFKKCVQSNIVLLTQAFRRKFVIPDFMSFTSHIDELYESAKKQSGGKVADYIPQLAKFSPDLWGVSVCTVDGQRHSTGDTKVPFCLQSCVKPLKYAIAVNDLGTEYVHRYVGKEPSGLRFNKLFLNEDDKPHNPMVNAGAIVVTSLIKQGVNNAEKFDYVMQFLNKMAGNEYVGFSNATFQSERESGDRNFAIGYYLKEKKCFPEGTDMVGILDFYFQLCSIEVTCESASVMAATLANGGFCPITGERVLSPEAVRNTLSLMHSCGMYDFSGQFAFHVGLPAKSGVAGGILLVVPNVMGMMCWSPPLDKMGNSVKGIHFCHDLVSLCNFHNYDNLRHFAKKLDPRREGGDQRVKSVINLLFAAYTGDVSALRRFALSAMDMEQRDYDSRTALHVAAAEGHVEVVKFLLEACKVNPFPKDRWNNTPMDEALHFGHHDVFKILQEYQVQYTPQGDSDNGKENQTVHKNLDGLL
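hKGA in 45 mM KH2PO4 pH 8.2, 0.02% Tween-20 with pin-transferred compounds; 1 mM L-glutamine (stock) plus glutamate oxidase/HRP/Amplex Red coupling added. Fluorescence read initially and after 30 min at RT.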
Pin1 inh – inhibitors of human Pin1; Q13526; Pin1 FP peptide displacement, HiFluor488, 10 min; Potency, µM (doses to about 115 µM), for inactives: at the top dose activity, negative = inhibition, actives largely listed as inhibitors; 390,000 compounds, 0.009% hits; AID 504891; active = well fitted inhibition curve with a large enough effect in the polarisation, with a control signal flat, not every such curve was filed as active; inconclusive = small, poorly fitted or top-dose-only effect, or effect the other way, or a change in a side signal; inactive = no such curve, though single readings can be large or run the other way; the % refers to the polarisation; note: % is set by controls: 0 for no effect and ±100 for the full control effect
Target sequence (Q13526 whole entry, looked up): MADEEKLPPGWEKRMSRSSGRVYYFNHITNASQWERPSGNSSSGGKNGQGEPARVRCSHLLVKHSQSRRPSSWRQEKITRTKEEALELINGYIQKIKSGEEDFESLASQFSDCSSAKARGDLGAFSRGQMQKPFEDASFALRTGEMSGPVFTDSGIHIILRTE
TrxR1 inh – blocks rat thioredoxin reductase 1 | O89049 | recombinant rTrxR1, NADPH fluorescence consumption, selenite substrate | Potency, µM (series often up to 114 µM), without a hit: at the highest dose activity change, negative = inhibition, usual class: inhibitors | 390,000 compounds, 1% hits | AID 588453; note: % is set by controls: 0 for no effect and ±100 for the full control effect; nearly all actives have a fitted effect of over 65% in size
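Rat TrxR1 (90 nM in the dispensed reagent) was pre-reduced with 400 uM NADPH for 5 min at room temperature, then incubated with compound for 15 min. After 400 uM selenite was added, NADPH fluorescence (Ex 340/Em 450 nm) was followed for 8 min.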
ERG-DNA inh – inhibitors of human ERG Ets domain-DNA interaction; Potency, µM (highest dose often 76.9 µM), inactives show at the top dose FP activity, negative = inhibition, hits mostly inhibitors; 370,000 compounds, 0.028% hits; fluorescence polarization, His-ERG Ets domain / labelled DNA; active = well fitted inhibition curve with a large enough effect in the polarisation, with a control signal flat; inconclusive = small, poorly fitted or top-dose-only effect, or effect the other way, or a change in a side signal; inactive = no such curve, though single readings can be large or run the other way; the % refers to the polarisation;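 note: polarization taken with two DNA probes labelled with fluorescein and Texas red; % of control where 0% means no effect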
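His-tagged ERG Ets domain (1 uM in the protein solution; 300mM KCl, 50mM Tris-HCl, 1mM EDTA, 1mM DTT, pH 7.5) received compound, then a probe mix of 5 nM fluorescein-DNA and 100nM Texas-615-DNA. Fluorescence polarization was read for both dyes.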
Starred values were filed as active, the others as inactive; i = inactive; ? = inconclusive; · = no result given; & = joins results of further samples; [ ] = another dose, or the depositor's remark. Unless noted, calls come from the whole dose curve; as a rule, active = well fitted curve in the direction sought with a large enough effect; inconclusive = small, poorly fitted or top-dose-only effect, or another doubt; inactive = no such curve, though single readings can be large; an effect the other way counts as inactive or inconclusive. Potency is the fitted concentration of half-maximal effect.

Second line of a record: PGK inhibitor | 12-LOX inh | RGS4 inhibitor | GLS inh | Pin1 inh | TrxR1 inh | ERG-DNA inh
> C/C(=C\c1ccccc1)CN1CCC(C(=O)N2CCCC(C)C2)CC1 (stereo unspecified)
 : · | -26% | -31% | 8% | -1% | 14% | -6%
> O=[N+]([O-])c1ccc(SNc2ccccc2)c([N+](=O)[O-])c1
 : -2% | 0% | -2% | 0% | -8% | 16%[11.4 µM] | -1%
> CC(C)(C)S(=O)(=O)N1C[C@@H]2CC/C=C\C/C=C\2[C@H]1CCO
 : -4% | ? | -2% | -1% | -3% | -20% | 15%
> O=C(OCC(=O)N1CCCC1)c1c2c(nc3ccccc13)CCCCC2
 : 6% | -8% | 22% | -2% | 12% | -1%[57.1 µM] | 14%
> CCCCNC(=O)C1CCN(Cc2ccccn2)CC1
 : -2% | 14% | 5% | -15% | -10% | 0% | -3%
> Cc1cc(C)c(S(=O)(=O)n2cc(C(C)C(N)C(=O)O)c3ccccc32)c(C)c1 (stereo unspecified)
 : 2% | ? | -10% | 3% | 0% | ? | -3%
> Cc1nn2c(-c3ccco3)ccnc2c1-c1ccc(F)cc1
 : -7% | -18% | 6% | 5% | 6% | 10% | -4%
> O=C(O)c1ccc(/C=C(\c2nc3ccccc3[nH]2)c2nc3ccccc3s2)cc1
 : -17% | -17% | -43% | -7% | -2% | -13% | -7%
> CC1=C(c2ccc(C)cc2)S(=O)(=O)N(Cc2ccc(C(=O)Nc3ccccc3C)cc2)C1=O
 : -11% | -16% | -4% | -14% | 32%[activator] | 24%[57.1 µM] | 2%
> CC(/C=N/n1c(-c2n[nH]c3c2CCC3)n[nH]c1=S)=C\c1ccco1
 : -8% | -12% | -47% | ? | ? | ? | 5%
> O=[N+]([O-])c1cccc(NNS(=O)(=O)c2ccccc2F)c1
 : -1% | ? | ? | -15% | 1% | 6% | -1%
> Clc1cccc(CSc2ncn(-c3ccccc3)n2)c1
 : 16% | ? | 0% | 13% | 2% | -8% | -4%
> COc1cccc(Nc2sc(C(=O)c3ccc(F)cc3)c(N)c2C(=O)NCc2ccc(Cl)cc2)c1
 : -11% | -22% | -45% | -1% | 14% | 6%[57.1 µM] | -2%
> COCCS(=O)(=O)N(Cc1ccccc1)[C@H](C(=O)OC)C(C)C
 : i | 4% | 7% | -9% | -7% | 14% | -20%
> CC1CC(C)CN(CC(=O)N2c3ccccc3CCc3ccccc32)C1 (stereo unspecified)
 : -2% | ? | 20% | -2% | -6% | 3% | -8%
> COc1ccc(C(=O)CN2CCN(c3ncccn3)CC2)cc1
 : -3% | ? | -6%[56.9 µM] | 2% | -10% | -15% | -9%
> CCN(CC)CCNC(=O)c1ccc(-c2nc(CN3CCc4ccccc43)c(C)o2)cc1
 : 5% | -11% | -43% | 12% | ? | 2%[57.1 µM] | -8%
> CCN1CCC2(CC1)N=C(c1ccc(F)cc1)C(=S)N2C(=O)c1ccc(C(C)(C)C)cc1
 : -2% | ? | ? | 6% | 0% | -23%[57.1 µM] | 1%
> C=CCN1CCN(C(=O)c2ccc3c(c2)OCO3)CC1
 : -6% | -5% | 3% | -2% | -2% | 16% | -12%
> COc1ccc(CN2CCN(C(=O)CC(C)C)CC2)cc1OC
 : i | ? | -1% | 4% | -7% | -11% | 1%

Pulled by compound from the list above:
Second line of a record: PGK inhibitor | 12-LOX inh | RGS4 inhibitor | GLS inh | Pin1 inh | TrxR1 inh | ERG-DNA inh
> CCN1CCC2(CC1)N=C(c1ccc(F)cc1)C(=S)N2C(=O)c1ccc(C(C)(C)C)cc1
 : -2% | ? | ? | 6% | 0% | -23%[57.1 µM] | 1%
> CCN(CC)CCNC(=O)c1ccc(-c2nc(CN3CCc4ccccc43)c(C)o2)cc1
 : 5% | -11% | -43% | 12% | ? | 2%[57.1 µM] | -8%
> COc1ccc(CN2CCN(C(=O)CC(C)C)CC2)cc1OC
 : i | ? | -1% | 4% | -7% | -11% | 1%
> CC1CC(C)CN(CC(=O)N2c3ccccc3CCc3ccccc32)C1 (stereo unspecified)
 : -2% | ? | 20% | -2% | -6% | 3% | -8%
> COCCS(=O)(=O)N(Cc1ccccc1)[C@H](C(=O)OC)C(C)C
 : i | 4% | 7% | -9% | -7% | 14% | -20%
> C=CCN1CCN(C(=O)c2ccc3c(c2)OCO3)CC1
 : -6% | -5% | 3% | -2% | -2% | 16% | -12%
> COc1ccc(C(=O)CN2CCN(c3ncccn3)CC2)cc1
 : -3% | ? | -6%[56.9 µM] | 2% | -10% | -15% | -9%

Later entries.
Second line of a record: PGK inhibitor | 12-LOX inh | RGS4 inhibitor | GLS inh | Pin1 inh | TrxR1 inh | ERG-DNA inh
> CC(CCN1CCN(CCO)CC1)c1ccccc1 (stereo unspecified)
 : i | ? | 1% | -5% | -2% | 10% | -28%
> CC1CCCCN1CC(=O)Nc1ccc2c(c1)OCO2 (stereo unspecified)
 : 9% | -51% | 15% | 11% | -2% | 3% | -1%
> COc1ccccc1C(c1nnnn1Cc1ccccc1)N1CCN(c2nc3ccccc3s2)CC1 (stereo unspecified)
 : 10% | ? | 6% | 1% | 4% | 7%[57.1 µM] | -2%
> COC(=O)c1cc(=O)nc2sc3cc(OC)ccc3n12
 : 0% | 8% | -40% | -9% | -4% | 1%[57.1 µM] | -3%
> CCOC(=O)N1CCN(Cc2ccccc2Cl)CC1
 : -12% | ? | 2% | -1% | 1% | -1%[57.1 µM] | 6%
> COc1cccc(/C=N\n2c(C)nnc2C)c1OC
 : -5% | 3% | -5% | -14% | -4% | 14%[57.1 µM] | -10%
> CC(Cc1ccccc1)=NNc1ccc([N+](=O)[O-])cc1[N+](=O)[O-]
 : 4% | -11% | -4% | 4% | -2% | 4% | 8%
> Cc1c(C)n(Cc2ccccc2)c2ncnc(NN)c12
 : 5% | 38%[activator] | -34% | -6% | 10% | 15% | 6%
> O=C(CSc1ncn[nH]1)c1ccc2c(c1)OCCO2
 : 2% | ? | ? | -2% | -3% | -18% | 1%
> CCN1CCN(CC(=O)Nc2nc3ccccc3s2)CC1
 : i | 0% | 5% | -1% | -9% | 18% | 2%
> O=C(CN1CCCCCC1)NCC1CCCO1 (stereo unspecified)
 : -1% | -20% | 4% | 8% | -9% | 24% | 1%
> CC(=O)Nc1ccc(-c2csc(-c3cccnc3)n2)cc1
 : 0% | 0% | -9% | -12% | 8% | 17% | -9%
> CCNC(=O)N1C(=O)C2(OCCO2)c2ccccc21
 : 2% | -12% | 42% | 6% | -3% | 10%[57.1 µM] | 12%
> Nc1c(C2CCCCC2)c(=O)on1C(=O)c1ccccc1
 : i | ? | -27% | 5% | 13% | 45µM* | 9%
> CN(C)C(=O)c1c2c(nc3ccccc13)CCCC2
 : 1% | 3% | -10% | -8% | 0% | 21%[57.1 µM] | 8%
> Cc1sc2ncn(CC(=O)NCCCC(=O)N3CCN(c4ccccc4)CC3)c(=O)c2c1C
 : -4% | 0% | -12% | 20% | -2% | 0%[57.1 µM] | -8%
> COc1cccc(-n2ccnc2SCC(=O)Nc2cccc3ccccc23)c1
 : -5% | ? | -4% | -6% | ? | -4%[57.1 µM] | -29%
> CCOc1ccc(NC(=O)CN(c2ccc(C)cc2)S(=O)(=O)c2cccs2)cc1
 : -10% | -4% | -5% | 5% | 0% | 16% | -4%
> O=C1CCC(=O)N1c1ccc(NCCc2cccc(F)c2)c([N+](=O)[O-])c1
 : i | 19% | -1% | -2% | 1% | -4% | 23%
> C=CCNc1nc(-c2ccccc2)c(C(=O)OCC)cc1C#N
 : 0% | 15% | -17%[11.4 µM] | -14% | -5% | 9%[57.1 µM] | -8%
> COC(=O)[C@H](CC(C)C)NS(=O)(=O)N(Cc1ccccc1)[C@@H](CC(C)C)C(=O)OC
 : 0% | -8% | -13% | -14% | 0% | 26%&-9% | 0%
> CC1CC=CC2C1C(=O)N(Cc1ccccc1)C2c1ccc(-c2ccc(N(C)C)cc2)cc1F (stereo unspecified)
 : · | · | 7% | · | ? | 83%[activator] | ·
> CN(C)c1ccc(-c2cc([C@H]3[C@@H]4C=CCC[C@@]4(C)C(=O)N3Cc3ccccc3)ccc2F)cc1
 : -6% | ? | 7% | 4% | 5% | -12% | -14%
> CCN(c1ccccc1)S(=O)(=O)c1ccc(OC)c(NC(=O)CNCC(C)O)c1 (stereo unspecified)
 : 9% | 14% | 13% | 15% | -9% | -11% | -2%
> CC(C)CC(=O)N1CCN(Cc2cccc([N+](=O)[O-])c2)CC1
 : -1% | -17% | 27% | 2% | -12% | 14% | -11%
> CC(C)(C)CC(C)(C)SSc1n[nH]c(=S)s1
 : -8% | 35µM* | ? | 14% | · | -21% | 4%
> CCOc1cc(C)c(Cl)cc1S(=O)(=O)NCc1ccc2c(c1)OCO2
 : 3% | ? | 25% | -1% | 5% | -3% | 6%
> COc1cc(OC)c(C(=O)OCC(=O)Nc2nnc(-c3ccccc3)o2)cc1OC
 : 1% | i | -2% | 8% | -2% | -2% | 4%
> Cc1cc(C)c(C(=O)N2CCCC(CNC(=O)C3(c4ccc(Cl)cc4)CC3)C2)c(=O)[nH]1 (stereo unspecified)
 : -10% | -5% | 2% | 0% | -2% | 36% | 5%
> COc1ccc(N=C2C=CC(=O)O2)cc1
 : -24% | -29% | ? | ? | -11% | 10µM* | 21%
> N#CCCN(CCC#N)S(=O)(=O)c1ccc(C(=O)Nc2nnc(C3=COCCO3)o2)cc1
 : -7% | 2% | 27% | -1% | -7% | 14% | -5%
> O=C(Cc1cccs1)Nc1nnc(Cc2ccccc2)s1
 : -5% | 45µM* | ? | -5% | 2% | -3%[57.1 µM] | 5%
> O=S(=O)(c1ccc2nc(N3CCN(c4ccc(F)cc4)CC3)ccc2c1)N1CCCCC1
 : -10% | ? | -27% | -1% | 7% | 7% | -3%
> O=C(Nc1nnc(SCc2ccc(F)cc2)s1)c1cnccn1
 : i | 281%[activator] | -33% | 0% | 8% | 11%[57.1 µM] | 4%
> CCOC(=O)CN(C(=O)CSc1nnc(-c2ccncc2)n1CCCOC)c1ccccc1
 : 5% | 0% | 16% | 13% | 3% | -7% | -6%
> O=C(NC1CCCC1)C1CCN(C(=O)c2ccc(Cl)cc2Cl)CC1
 : -1% | -6% | 18% | 0% | 0% | 22% | -2%

The list is partial (hit frequency here may not be typical).
